Compound activity (PubChem)
Sa helicase inh: S. aureus DNA helicase inhibition; AID 485395; inhibition, %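 (tested at about 80 µM)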; 120,000 tested, 0.05% active; purified S. aureus helicase, fluorescence unwinding assay; about half of the hits fall short of the stated cut;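 active means both duplicates at 50% or more, or one of them with a favoured structure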;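 further: 0% = mean of negative control wells and 100% = mean of positive control wells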
MgrA DNA FP: S. aureus MgrA-DNA binding modulation; fluorescence polarization; inhibition, %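 (about 10 µg/mL by stock and volumes)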; 84,000 tested, 0.13% active; AID 602314;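 active means above 50% in either of two replicates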;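 further: 0% = protein plus DNA without compound and 100% = DNA alone without protein; higher means less MgrA bound to DNA so lower polarization; one replicate is shown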
An asterisk follows results filed as active; x = not tested or not shown; & = joins results of further samples.

[1] CCN1/C(=c2/sc3nc4ccccc4n3c2=O)Sc2ccc(OC)cc21
[2] CC(OC(=O)Cn1cnc2ccccc21)c1ccccc1Cl (stereo not given)
[3] Cc1ccc(-c2csc3nc(-c4cccc(Br)c4)oc(=O)c23)cc1
[4] COc1cccc(C2C(C(=O)O)c3ccccc3C(=O)N2C)c1 (stereo not given)
[5] Cc1ccc(NC(=O)NCc2noc3ccccc23)nc1
entry no.	1	2	3	4	5
Sa helicase inh	0.0	-8.0	x	-3.0	-4.0
MgrA DNA FP	-0.8	x	0.4	-3.4	-1.1

[6] CCCn1c(O)c(C=Nc2ccccc2C(=O)NC2CC2)c(=O)[nH]c1=S
[7] COc1cccc(NC2OC(=O)c3ccccc32)c1 (stereo not given)
[8] OCCCn1c(-c2ccccc2)cn2c(-c3ccccc3)c(-c3ccccc3)nc12
[9] O=c1c2ccccc2nnn1CN1CCCCC1
[10] CCOC(=O)CSC1=C(C#N)C(c2ccccc2C)C2=C(CCCC2=O)N1 (stereo not given)
entry no.	6	7	8	9	10
Sa helicase inh	20.0	-4.0	5.0	5.0	13.0
MgrA DNA FP	x	-0.9	-0.6	2.9	x

[11] O=C(NCc1ccco1)c1ccc2c(c1)N(Cc1c(F)cccc1Cl)C(=O)CS2
[12] N#Cc1c(N2CCCC2)ccc(Br)c1Cl
[13] O=C(COC(=O)C1CCC1)Nc1cccc(Cl)c1Cl
[14] O=C(NC1CCCCNC1=O)c1cn(S(=O)(=O)c2ccccc2)c2ccccc12 (stereo not given)
[15] O=C(Oc1ccc(F)cc1)N1CCOCC1
entry no.	11	12	13	14	15
Sa helicase inh	33.0	x	19.0	x	7.0
MgrA DNA FP	x	3.5	-2.4	0.4	-0.4

[16] CC(C)(C)NC1=CC(=O)OC12CCCCC2
[17] N#CCSc1nnc(-c2ccc(Cl)cc2Cl)n1N
[18] CS(=O)(=O)c1scc(-c2ccccc2Cl)c1C#N
[19] O=C(Nc1cccc(Cl)c1Cl)NC1CC1
[20] O=C(Nc1ccncc1NC(=O)c1ccccc1)c1ccccc1
entry no.	16	17	18	19	20
Sa helicase inh	15.0	7.0	x	24.0	-4.0
MgrA DNA FP	-1.4	x	-2.5	0.6	x

[21] O=C(N/N=C1\CCCCc2ccccc21)c1cccnc1
[22] Cc1noc2nc(C(F)(F)F)cc(C(F)(F)F)c12
[23] O=C(CSc1nc2ccccc2nc1N1CCOCC1)NCc1ccc2c(c1)OCO2
[24] O=C(c1ccc(-n2nc(C(F)(F)F)c3c2CCCC3)cc1)N1CCOCC1
[25] O=C(O)c1ccc(C(=O)O)c(C(=O)O)c1
entry no.	21	22	23	24	25
Sa helicase inh	-8.0	-13.0	-6.0	8.0	-10.0
MgrA DNA FP	x	x	0.6	x	x

[26] Cc1cc(-c2ccccc2)nnc1-c1ccccc1
[27] O=C(CN1CCc2ccccc2C1)NC1CCCC1
[28] CCCN1CCC(NCc2ccco2)CC1
[29] CC(C)c1ccc(OCc2nnc(SCC(=O)NC3CCCCC3)o2)cc1
[30] COc1ccc(NC(=O)CSc2nc3ccccc3[nH]2)c(OC)c1
entry no.	26	27	28	29	30
Sa helicase inh	11.0	2.0	-14.0	22.0	9.0
MgrA DNA FP	-0.7	0.8	-7.3	1.4	x

[31] Cc1ccc(S(=O)(=O)N(CCO)Cc2cc3cc(C)c(C)cc3[nH]c2=O)cc1
[32] CC(=O)Nc1ccccc1OCC(=O)N(Cc1ccccc1)C(C)C
[33] CCn1c(C)c(C)c2cc(C(=O)NCCCN3CCCC3)ccc21
[34] CCN1CCN(CCCNC(=O)CC2Oc3ccc(C)cc3NC2=O)CC1 (stereo not given)
[35] CS(=O)(=O)N1CCCc2cc(C(=O)NC3CCCCCCC3)ccc21
entry no.	31	32	33	34	35
Sa helicase inh	-4.0	-1.0	2.0	10.0	-1.0
MgrA DNA FP	0.6	x	x	x	x

[36] N#Cc1ccc(-c2ccccc2)[nH]c1=O
[37] CCN1CCN(c2cc(C)c3cc(NC(=S)N(C)Cc4ccccc4)ccc3n2)CC1
[38] Nc1ccc(S(=O)(=O)c2ccc(N)cc2)cc1
[39] CNS(=O)(=O)c1cccc(C(=O)OCC(=O)N2CCc3ccccc32)c1
[40] CCC(=O)N1CCc2cc(Br)cc(S(=O)(=O)N3CCCCC3CC)c21 (stereo not given)
entry no.	36	37	38	39	40
Sa helicase inh	8.0	-11.0	x	-9.0	15.0
MgrA DNA FP	0.2	0.3	1.8&1.4	x	-0.8

[41] CCn1c(CSc2nc(C)cc(C)n2)nnc1SCc1ccccc1
[42] CC1(C)CC(=O)C(C(C2=C(O)CC(C)(C)CC2=O)c2ccccc2)=C(O)C1
[43] CCOc1cc(N2CCOCC2)c(OCC)cc1NC(=O)c1cc(S(=O)(=O)N(C)C)ccc1Cl
[44] CC(=O)Nc1ccc(S(=O)(=O)NC2Cc3ccccc3C2)cc1
[45] CC(Oc1ccccc1)C(=O)NN1Cc2ccccc2C1=N (stereo not given)
entry no.	41	42	43	44	45
Sa helicase inh	-12.0	-7.0	-6.0	x	-5.0
MgrA DNA FP	1.0	x	x	-3.4	x

[46] Cc1cc(C)c2cc(C(=O)NCCNc3ccc(C(F)(F)F)cn3)[nH]c2c1
[47] CCn1cc(SCC(=O)Nc2nccs2)c2ccccc21
[48] CCOc1ccc(C(F)(F)F)cc1NC(C)=O
[49] O=C(c1ccc2c(c1)C(=O)N(Cc1ccncc1)C2=O)N1CCN(S(=O)(=O)c2ccc(OC(F)(F)F)cc2)CC1
[50] Cn1nc(C(C)(C)C)cc1C(=O)NC1CCCCNC1=O (stereo not given)
entry no.	46	47	48	49	50
Sa helicase inh	x	-2.0	-8.0	7.0	x
MgrA DNA FP	-2.0	x	-1.4	x	0.1

[51] Cc1cc(C)n(-c2nc3cc(Cl)ccc3nc2NCCN2CCOCC2)n1
[52] CN1CCOc2cc(S(=O)(=O)NCCc3ccc(Cl)cc3)ccc21
[53] CC(C)C(=O)NNc1ncccc1C(F)(F)F
[54] CCCn1c(=O)c(C(=O)NCc2ccccc2)c(O)c2ccccc21
[55] CCc1ccccc1Nc1nc(N)nc(COC(=O)CSCc2c(C)noc2C)n1
entry no.	51	52	53	54	55
Sa helicase inh	-3.0	10.0	-24.0	-5.0	-3.0
MgrA DNA FP	-0.2	4.8	x	-0.4	x

[56] CCn1c(=O)n(CC)c2cc(Nc3nc4ccccc4c4nncn34)c(Br)cc21
[57] CNC(=O)CSc1nc2cc(Cl)ccc2c(=O)n1CC1CCCO1 (stereo not given)
[58] CCS(=O)(=O)Nc1ccc(C(F)(F)F)cc1
[59] Cc1cc(-c2noc(-c3ccccc3C)n2)c2ccccc2n1
[60] Cc1ccc(C)n1-c1nn(S(=O)(=O)c2cccc(C(F)(F)F)c2)c2cccc(F)c12
entry no.	56	57	58	59	60
Sa helicase inh	-2.0	-7.0	11.0	-1.0	x
MgrA DNA FP	x	x	1.0	-0.9	-1.6

[61] CCOc1ccc(NC(=O)CC2SC(=Nc3ccccc3)N(c3ccccc3)C2=O)cc1 (stereo not given)
[62] Cc1ccc(COc2ccc(I)cc2)cc1
[63] Cc1ccc(C(=O)OCC(=O)Nc2ccc(N3CCOCC3)cc2)cc1
[64] C=C1C(=O)O[C@@H]2[C@H]3O[C@]3(C)CC/C=C(\C)CC[C@@H]12
[65] COc1ccc(CCNC(=O)CSC2=Nc3ccccc3C3=NC(C(C)C)C(=O)N23)cc1OC (stereo not given)
entry no.	61	62	63	64	65
Sa helicase inh	x	x	-3.0	x	7.0
MgrA DNA FP	0.7	-0.1	x	-1.2&-2.4	1.1

[66] CCOC(=O)c1sc(-c2ccc3c(c2)CCO3)nc1C
[67] Cc1ccc(-c2c(C(=O)O)oc(=O)c3ccccc23)cc1
[68] O=C(c1cnn2c(C(F)F)cc(-c3ccccc3)nc12)N1CCc2ccccc21
[69] CCSc1nn(CC(=O)c2ccc(F)cc2)c(=N)s1
[70] O=C1c2cccc3cccc(c23)C(=O)N1Nc1ccccc1
entry no.	66	67	68	69	70
Sa helicase inh	x	-16.0	22.0	0.0	x
MgrA DNA FP	-2.0	-3.5	-0.9	x	1.9

[71] O=C(Nc1ccccc1)Nc1ccc(Cl)cc1
[72] CCC(C)(C)NC(=O)CCc1ccc(S(=O)(=O)N2CCOCC2)cc1
[73] O=C(NCC1COc2ccccc2O1)C1CCCCC1 (stereo not given)
[74] N=c1ccccn1CC(O)COc1ccccc1 (stereo not given)
[75] Cc1nc(CC#N)cs1
entry no.	71	72	73	74	75
Sa helicase inh	-2.0	27.0	x	12.0	-7.0
MgrA DNA FP	4.2	x	-2.3	-0.5	-3.0

[76] Cc1ccc(Nc2nc(C(C)(C)C)cs2)c(C)c1
[77] Cn1c(=O)c(=O)n(C)c2cc(S(=O)(=O)N3CCCC3C(=O)Nc3nccs3)ccc21 (stereo not given)
[78] O=c1cc(NCc2ccccc2)c2ccccc2o1
[79] Cc1cc(C)nc(NC(N)=NCc2cccnc2)n1
[80] CC(C)NC(=O)COn1nnc2ccc(S(=O)(=O)N(C)C)cc21
entry no.	76	77	78	79	80
Sa helicase inh	x	11.0	1.0	22.0	10.0
MgrA DNA FP	-0.4	x	-0.6	0.7	x

[81] COc1ccccc1C1OC(=O)CC1C(=O)O (stereo not given)
[82] O=C(OCCN=C1NS(=O)(=O)c2ccccc21)C1CC(=O)N(c2ccc(Cl)cc2)C1 (stereo not given)
[83] Clc1ccccc1-c1nnc(CN2CCc3ccccc32)o1
[84] O=C(NCc1ccccc1)c1c(O)nc2ccccn2c1=O
[85] CCc1cc(=O)n2[nH]c(C(F)(F)F)c(-c3ccccc3)c2n1
entry no.	81	82	83	84	85
Sa helicase inh	x	13.0	-38.0	1.0	9.0
MgrA DNA FP	2.2	x	x	x	0.8

[86] CCOc1nc(NCCC2=CCCCC2)nc(OCC)n1
[87] c1nc(Sc2nnnn2C2CC2)c2ccsc2n1
[88] Cc1c(Cc2c(F)cccc2Cl)c(=O)oc2cc(O)ccc12
[89] CC1=CC(O)(c2ccccc2)C(N2CCOCC2)N1O (stereo not given)
[90] O=C(NCCc1ccccn1)c1cnn(-c2ccc(Cl)cc2)c1C(F)(F)F
entry no.	86	87	88	89	90
Sa helicase inh	12.0	-22.0	x	x	x
MgrA DNA FP	-1.4	x	0.6	1.1	0.5

[91] CCC(=O)NCc1ccc2c3c(cccc13)C(=O)N2
[92] COc1ccc(CN2C(=O)CC(C(=O)Nc3ccccc3OC)SC2=Nc2ccc(F)cc2)cc1 (stereo not given)
[93] COc1ccc(-c2nnc(SCC(=O)OC3CC(C)CCC3C(C)C)o2)cc1 (stereo not given)
[94] O=C(O)CCNC(=O)c1ccc2c(c1)OCCO2
[95] c1ccc(-c2nc(-c3cccs3)no2)cc1
entry no.	91	92	93	94	95
Sa helicase inh	-5.0	x	0.0	15.0	11.0
MgrA DNA FP	x	1.9	x	-4.5	x

[96] CCN(C(=O)CSc1nnc(C)s1)c1ccccc1
[97] CCCN(CC1CC1)Cn1ncn(-c2ccccc2)c1=S
[98] CCOCc1cnc(C)nc1NCC(=O)c1c(C)[nH]c2cc(C)ccc12
[99] Cc1ccc(N2CCN(c3ccccc3)CC2)nn1
[100] Cc1ccccc1Nc1nc(N)nc(-c2cc3ccccc3o2)n1
entry no.	96	97	98	99	100
Sa helicase inh	7.0	6.0	-1.0	7.0	6.0
MgrA DNA FP	0.0	x	4.2	x	1.4

Structures from the list above containing a Cl atom:
[2] CC(OC(=O)Cn1cnc2ccccc21)c1ccccc1Cl (stereo not given)
[11] O=C(NCc1ccco1)c1ccc2c(c1)N(Cc1c(F)cccc1Cl)C(=O)CS2
[12] N#Cc1c(N2CCCC2)ccc(Br)c1Cl
[13] O=C(COC(=O)C1CCC1)Nc1cccc(Cl)c1Cl
[17] N#CCSc1nnc(-c2ccc(Cl)cc2Cl)n1N
[18] CS(=O)(=O)c1scc(-c2ccccc2Cl)c1C#N
[19] O=C(Nc1cccc(Cl)c1Cl)NC1CC1
entry no.	2	11	12	13	17	18	19
Sa helicase inh	-8.0	33.0	x	19.0	7.0	x	24.0
MgrA DNA FP	x	x	3.5	-2.4	x	-2.5	0.6

[43] CCOc1cc(N2CCOCC2)c(OCC)cc1NC(=O)c1cc(S(=O)(=O)N(C)C)ccc1Cl
[51] Cc1cc(C)n(-c2nc3cc(Cl)ccc3nc2NCCN2CCOCC2)n1
[52] CN1CCOc2cc(S(=O)(=O)NCCc3ccc(Cl)cc3)ccc21
[57] CNC(=O)CSc1nc2cc(Cl)ccc2c(=O)n1CC1CCCO1 (stereo not given)
[71] O=C(Nc1ccccc1)Nc1ccc(Cl)cc1
[82] O=C(OCCN=C1NS(=O)(=O)c2ccccc21)C1CC(=O)N(c2ccc(Cl)cc2)C1 (stereo not given)
[83] Clc1ccccc1-c1nnc(CN2CCc3ccccc32)o1
entry no.	43	51	52	57	71	82	83
Sa helicase inh	-6.0	-3.0	10.0	-7.0	-2.0	13.0	-38.0
MgrA DNA FP	x	-0.2	4.8	x	4.2	x	x

[88] Cc1c(Cc2c(F)cccc2Cl)c(=O)oc2cc(O)ccc12
[90] O=C(NCCc1ccccn1)c1cnn(-c2ccc(Cl)cc2)c1C(F)(F)F
entry no.	88	90
Sa helicase inh	x	x
MgrA DNA FP	0.6	0.5

The list is partial. The share of hits here may be higher or lower than overall.
